High-throughput results as filed in PubChem BioAssay.
HSD17B inhib – blocks hydroxysteroid 17-beta dehydrogenase activity; 75,000 compounds, 7.6% hits; recombinant HSD17B10, NADH fluorescence kinetic; many of its hits are not listed in these tables; Potency, µM (titrated, usually from 57.1 µM), inactives show at the highest dose activity change, negative = inhibition, actives largely listed as inhibitors; AID 893; Q99714; active means well fitted inhibition curve with a large enough effect; inconclusive means small, poorly fitted or top-dose-only effect; inactive means no such curve, though single readings can be large or run the other way;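 further: the protocol describes HADH2 (HSD17B10) and not the HSD17B4 of the title; nearly all actives have a fitted effect of over 70% in size; most hits overshoot -100% by far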
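His-tagged E. coli-expressed HADH2 at 20 nM in 100 mM Tris-HCl pH 9.0 with 0.01 % Tween-20, preincubated 15 min with compound at room temperature. Reaction with 1 mM NAD+ and 90 uM beta-hydroxybutyryl coenzyme A; NADH fluorescence (360/450 nm) read kinetically over 4 min, last minus first point.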
The depositor's hits bear a star; ? = inconclusive; [ ] = another dose, or the depositor's remark. On the % scale 0 is the no-effect control and ±100 the full control effect; potency means the concentration at half of the fitted maximal effect.

SMILES	HSD17B inhib
COc1cccc(NC(=O)CSc2nc3n[nH]c(C)c3c(=N)n2-c2cccc(OC)c2)c1	?
CN(C)S(=O)(=O)c1ccc2c(c1)C(CC(=O)O)NC2=O (stereo not drawn)	6%
C[C@H](CO)NC(=O)[C@@H]1C[C@H]1[C@@H](NP(=O)(c1ccccc1)c1ccccc1)c1ccccc1	-2%
O=C(c1cn(-c2ccccc2)nc1-c1ccccc1)N1CCOCC1	3%
Cc1noc(C)c1S(=O)(=O)N1CCCC(C(=O)NCCC2=CCCCC2)C1 (stereo not drawn)	-1%
COc1ccc2sc(C)nc2c1NC(C)=O	-8%
COCCN1Cc2cccc(C(=O)Nc3c(C)cc(C)cc3C)c2C1=O	14%
CC(=O)/C(C[N+]1(C)CCCCC1)=N\O	-5%
O=C(Nc1ccccc1)N(C1=NCCCCS1)c1ccccc1	-6%
O=C(NC1CCCCC1)N1CCC(n2cnc3ccccc32)CC1	-13%
Clc1ccc(C=Nc2ccc3c(c2)Cc2ccccc2-3)c(Cl)c1	2%[11.4 µM]
CCOc1ccc2[nH]c(=O)c(CN(CC3COCCO3)C(=O)c3ccco3)cc2c1 (stereo not drawn)	16µM*
C/C(=C\C(=O)c1ccc(Br)cc1)N1CCCCC1	0%
O=C1CC(C(=O)N2CCN(c3ccc(F)cc3)CC2)CN1CCc1ccccc1 (stereo not drawn)	-4%
CC(=O)c1ccc(OCCCC(=O)N2CCN(S(=O)(=O)c3cccs3)CC2)cc1	8%
COc1ccc(C(=O)NCCSCc2ccco2)cc1OC	4%
O=C1c2ccccc2S(=O)(=O)N1Cc1nnc(-c2ccccc2Br)o1	25µM*
Cc1nc(N2CCOCC2)c2nc(-c3ccccc3)n(CC(C)(C)CN(C)C)c2n1	32µM*
COc1ccccc1N1CCN(c2cc(=O)n(-c3ccc(Br)cc3)c(=O)[nH]2)CC1	4%
CS(=O)(=O)N(CC(=O)N1CCOCC1)Cc1ccccc1	-8%
CN(C)C(=O)c1nc(C#N)c(N(C)C)o1	-1%
O=C1CC(N2CCN(Cc3ccc4c(c3)OCO4)CC2)C(=O)N1c1ccccc1 (stereo not drawn)	?
CCCSc1nc2c(c(=O)[nH]c(=O)n2C)n1Cc1ccc(C)cc1	5%
CCOC(=O)c1csc(NC(=O)c2ccc(S(=O)(=O)N(C)C)cc2)n1	4%
Cc1csc(SCC(=O)Nc2nc3ccccc3s2)n1	-20%
CS(=O)(=O)N1CCC2(CC1)CN(c1ccccc1)C2	0%
Cn1cccc1C(=O)N1CCC2(CCCN(c3cccc(-c4ccccc4)c3)C2)CC1	-18%
COc1ccc(CN2CC(C(=O)NCCC3=CCCCC3)CC2=O)cc1 (stereo not drawn)	7%
Cc1ccc(NC(=O)c2ccco2)c(NC(=O)c2cccs2)c1	-1%
COC(=O)c1cc(-c2c(C)nn(-c3ccccc3)c2C)n[nH]1	5%
CC(=O)Nc1ccc(Nc2nc(C)nc3c2oc2ccccc23)cc1	?
CC(C)N(Cc1cc2ccccc2[nH]c1=O)C(=O)C(C)(C)C	-23%
CCCn1c(N2CCN(CC(=O)c3c[nH]c4ccccc34)CC2)nc2c1c(=O)[nH]c(=O)n2C	0%
COc1ccc(CCNC(=O)CSc2nnc(CNC(=O)c3ccccc3F)o2)cc1OC	-5%
Cc1ccc(C(=O)CC2(O)C(=O)N(CN3CCOCC3)c3ccccc32)cc1 (stereo not drawn)	-5%
CCOc1ccc(C2N(c3ccc(Cl)cc3)C(=O)C3CCCN32)cc1OC (stereo not drawn)	5%
C=CCc1cccc2cc(C(=O)NC(C)(C)C)c(=O)oc12	-18%
CCCCS(=O)(=O)NC1=NCN(CCOC(=O)c2ccccc2)CN1	1%
CC(C)NC(=O)CSc1nc2ccccc2c(=O)n1CCCOC(C)C	7%
COc1ccc(CCc2nc(-c3ccc(-n4cccc4)cc3)no2)cc1	?
COc1ccc(C(=O)N2CCC3(CCCN(Cc4ccncc4)C3)CC2)cc1	9%
COc1ccc(Nc2ncnc3c2oc2ccccc23)cc1	6%
O=C(c1ccc(CS(=O)(=O)c2c(Cl)cccc2Cl)o1)N1CCN(c2ccccn2)CC1	-4%
O=C(OCc1c(F)cccc1Cl)c1cnccn1	5%
COc1ccc(N(C)S(=O)(=O)c2c(C)[nH]c(=O)[nH]c2=O)cc1	-2%
O=C(c1cc2c(s1)-c1ccccc1OC2)N1CCCC1	25µM*
COc1ccc2c(C)c(Cl)c(=O)oc2c1	25µM*
O=C(NCC1CCCO1)C1CCCN1C(=O)NC1CCCCC1 (stereo not drawn)	12%
Cc1cc(NC(=O)c2cccc(S(=O)(=O)N3CC(c4ccccc4)CC3=O)c2)no1 (stereo not drawn)	-4%
Cn1c(Cn2c(=O)sc3ccccc32)nnc1SCC(=O)NCc1ccccc1	7%
CC(=O)c1c(C)[nH]c(C(=O)OCCCCN2C(=O)c3ccccc3C2=O)c1C	-5%
Nc1cc([N+](=O)[O-])ccc1C(=O)O	-10%
CCc1ccc(C2CC(c3cccc(Cl)c3)n3nc(N)nc3N2)cc1 (stereo not drawn)	-12%
Brc1c(CSc2nnc(-c3ccco3)o2)nc2ccccn12	-14%
C/C(=C\C(=O)c1ccc(F)cc1)Nc1ccc(N2CCOCC2)cc1	1%
COc1cccc(-n2ccnc2SCC(=O)Nc2ccccc2)c1	-3%
CCOC(=O)C1CCCN(C(=O)Cc2c(F)cccc2Cl)C1 (stereo not drawn)	13%
CCOC(=O)Cc1csc(NC(=O)c2csc(C)c2)n1	-1%
O=P(O)(CCc1ccccc1)CN1CCCCC1	-1%
O=C1[C@@H]2[C@H](Cc3ccc(O)cc3)N[C@]3(C(=O)Nc4ccccc43)[C@@H]2C(=O)N1c1ccc(F)cc1	1%
Additional entries.
SMILES	HSD17B inhib
Cc1cccc2cc(CN(Cc3cccs3)C3(c4nnnn4C4CCCC4)CCCC3)c(=O)[nH]c12	1%
O=C1CC[C@@]23/C=C/C(=O)NCCCCNCCCNC(=O)/C=C/c4ccc(c2c4)OC3C1 (stereo partly drawn)	0%
CN(CC(=O)N1CCN(c2ccccc2)CC1)S(=O)(=O)c1cnc[nH]1	14%
COc1ccc(Cn2nnnc2CN2CCOCC2)cc1	4%
N#C/C(=C(/O)COC(=O)CCCNC(=O)c1ccc(Cl)cc1)c1nc2ccccc2[nH]1	-6%
COC(=O)C(Cc1ccccc1)NC(=O)CSc1nc(N)cc(=O)[nH]1 (stereo not drawn)	0%
Cc1cc(C)cc(N2CC(C(=O)O)CC2=O)c1 (stereo not drawn)	-5%
Cc1ncc(CO)c2cc(C(N)=O)c(=Nc3ccccc3)oc12	9%
Cc1ccc(C)c(Cn2c(CO)nc3ccccc32)c1	2%
Cn1nnnc1SCC(=O)Nc1ccccc1Cc1ccccc1	-5%
Cc1ccc(S(=O)(=O)N2CCN(C(=O)N(C)C)CC2)cc1C	3%
O=C(Nc1ccccc1)C1=C(O)CC(c2ccco2)CC1=Nc1ccccc1 (stereo not drawn)	7.9µM*
O=C(COc1ccccc1Cl)N(Cc1ccco1)C1CCS(=O)(=O)C1 (stereo not drawn)	5%
Cc1nnc(SCCn2c(N(C)Cc3ccccc3)nc3c2c(=O)n(C)c(=O)n3C)s1	4%
COc1ccc(OC)c(N/C=C2/CCCCC2=O)c1	-26%
CC1CCN(C(=O)C2CCN(S(=O)(=O)c3cnc[nH]3)CC2)CC1	4%
Cc1sc2nc(SCC(=O)NCCO)n(C)c(=O)c2c1C	-5%
CC1CCC(C(=O)O)([C@H](Br)C(=O)O)CC1 (stereo partly drawn)	2%[11.4 µM]
Cc1cc(C)nc(Nc2ccc(N3CCOCC3)cc2)n1	-1%
COC(=O)C(NC=O)C(O)(Cc1ccccc1)C(F)(F)F (stereo not drawn)	4%
COC(=O)C1(C)NC(c2ccco2)C2C(=O)N(c3ccc(C)cc3)C(=O)C21 (stereo not drawn)	14%
CC(C)N(Cc1nc(-c2ccccc2)no1)C(=O)Cc1ccccc1	-8%
CCCCSCCCNC(=O)CS(=O)Cc1nc(-c2cccc(C)c2)oc1C (stereo not drawn)	-23%
Cc1ccccc1-n1c(Cn2c(=O)sc3ccccc32)nnc1SCC(=O)NCC1CCCO1 (stereo not drawn)	3%
Nc1nonc1-n1nnc(C(=O)c2ccccc2)c1-c1ccccc1	6%
CC1(C)NC(C)(C)c2nonc2/C1=N\O	-3%
CCOC(=O)c1c(NC(=O)CSc2nc3c(c(=O)n(C)c(=O)n3C)n2C(C)C)sc(C)c1C	-14%
C[C@H](NC(=O)OC(C)(C)C)c1nnc(SCC(=O)Nc2ccc(Br)cc2)o1	2%
COc1ccc(NC(=O)N2CCC3(CC2)CCN(S(C)(=O)=O)CC3)cc1	-1%
Cc1ccccc1SCC(=O)NC1CCOC1=O (stereo not drawn)	-7%
CCCC(C)C(=O)Nc1ccc(C(N)=O)cc1 (stereo not drawn)	?
O=c1cc(-c2ccc(O)c(O)c2)oc2cccc(O)c12	?
COc1ccc(Br)cc1-c1noc(-c2ccncc2)n1	5%
COc1ccc2c(c1)NC1(O)c3ccccc3C(=O)C21O (stereo not drawn)	13%
COc1ccccc1NC(=O)N1CCN(c2ccccc2F)CC1	5%
O=C(CCSCCC(=O)NCc1ccco1)NCc1ccco1	?
Cc1c(N)c(=O)n(-c2ccccc2)n1C	-1%
Cc1cc(C)c(C)c(OCC(=O)NCc2nc(-c3ccccc3)no2)c1	0%
CCc1nnc(NC(=O)C2CCN(c3nc(C)cc(C)n3)CC2)s1	?
O=C(NC1CC1)c1c[nH]c2ccc(S(=O)(=O)Nc3cccc(C(F)(F)F)c3)cc2c1=O	-12%
O=C(NCCC1=CCCCC1)C1CCN(S(=O)(=O)c2cnc[nH]2)CC1	4%
COc1ccc(N2CC(O)=C(c3nc4ccccc4s3)C2=N)cc1	-7%
O=C(CSc1nnc(NC(=O)C2CCC2)s1)Nc1ccc(N2CCOCC2)cc1	1%
CC(NC(=O)c1ccc(NS(C)(=O)=O)cc1)c1ccccc1 (stereo not drawn)	9%
O=C(NCc1ccccn1)c1cnc2sccn2c1=O	25µM*
c1cnn(-c2nc(N3CCOCC3)nc(N3CCOCC3)n2)c1	7%
Cc1cccc(N2C(N)=C(C#N)C(C#N)(C#N)C2c2ccccc2)c1 (stereo not drawn)	?
Cn1cnnc1SCC(=O)NC(=O)NC1CCCC1	9%
O=C(NCCCN1CCCC1=O)c1ccc2c(c1)ncn2C1CCCCC1	11%
Nc1nnc(SCc2cc3c(cc2Cl)OCO3)s1	-2%
Cc1ccc2[nH]c(=O)c(CN(CC3CCCO3)C(=O)c3ccco3)cc2c1 (stereo not drawn)	-2%
CCC(Sc1nc(=O)cc(N)n1CCc1ccccc1)C(=O)Nc1ccccc1C#N (stereo not drawn)	4%
COc1ccc(OC)c(S(=O)(=O)Nc2ccc(O)c3ccccc23)c1	16µM*
O=C(CSc1nc2ccccc2o1)Nc1ccccc1	0%
CC1CCN(S(=O)(=O)c2cccc(C(=O)Nc3ccccn3)c2)CC1	2%
CC(=O)c1ccc(NC(=O)C2CCCN2S(=O)(=O)c2cccc3cccnc23)cc1 (stereo not drawn)	-2%
CC(C)Cn1c(=O)c(C(=O)Nc2cnccn2)c(O)c2ccccc21	10%
Cn1c(SCc2ccccc2)nnc1-c1cccs1	2%
CCN(C#N)c1nc(NC(C)C)nc(NC(C)C)n1	6%
COc1ccccc1N1CCN(CCC(=O)Nc2ccc3c(c2)OCO3)CC1	2%
Cc1cccc(N2CC(C(=O)O)CC2=O)c1 (stereo not drawn)	-9%

The list is partial; the hit share may differ from the screen's.
